Screening data as filed in PubChem BioAssay.
FUS yeast rescue – suppressors of FUS proteinopathy in yeast. Potency, µM (series often up to 76.6 µM), for the others: at the top dose growth rescue (activation), actives largely listed as activators. S. cerevisiae FUS-expressing, growth rescue, OD600, 24 h. 0.24% of 390,000 active. AID 1347120;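 note: potency is the fitted concentration of half-maximal effect; plate controls were DMSO vehicle for no effect and reference control for full effect; nearly all actives have a fitted effect of over 55% in size; some results filed as inactive show a strong effect at the top dose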
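Cultures pregrown in 2.5% raffinose medium are shifted to minimal medium containing 2% galactose to express toxic FUS. Compounds are tested at several concentrations. After 24hr at 30C, growth is quantified at 600 nm absorbance.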
GLP1R inv ag – GLP-1 receptor (human) inverse agonism; Potency, µM (doses to about 38.3 µM), inactives show top-dose activity change, negative = inhibition, usual class: inhibitors; HEK293 GLP-1R CRE-luciferase, luminescence, 24 h; GLP-1R form is constitutively active; P43220; 1.6% of 410,000 active; note: potency is the fitted concentration of half-maximal effect; % is set by controls: 0 for no effect and ±100 for the full control effect; nearly all actives have a fitted effect of over 55% in size
Target sequence (P43220 whole entry, looked up): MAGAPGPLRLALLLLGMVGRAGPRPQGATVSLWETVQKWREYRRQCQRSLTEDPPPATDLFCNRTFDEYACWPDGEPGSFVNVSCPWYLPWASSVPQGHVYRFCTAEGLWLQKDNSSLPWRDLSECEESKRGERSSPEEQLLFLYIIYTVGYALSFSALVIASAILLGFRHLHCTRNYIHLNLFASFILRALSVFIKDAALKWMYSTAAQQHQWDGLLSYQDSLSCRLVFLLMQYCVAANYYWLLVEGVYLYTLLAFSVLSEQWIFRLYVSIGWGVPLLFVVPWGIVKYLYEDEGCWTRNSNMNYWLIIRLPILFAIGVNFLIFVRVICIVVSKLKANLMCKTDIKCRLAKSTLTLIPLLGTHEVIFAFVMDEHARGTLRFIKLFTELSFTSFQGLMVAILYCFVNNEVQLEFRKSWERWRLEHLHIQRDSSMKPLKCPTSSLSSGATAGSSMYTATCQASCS
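Cells are plated, allowed 12 hours at 37 deg C, then treated with compounds for 24 hr before luciferase detection reagent is added and luminescence is read after 12 min at room temperature. The HEK293 line carries constitutively active GLP-1R with a cAMP-responsive reporter.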
aSyn yeast inh – alpha-synuclein toxicity inhibition in yeast. Potency, µM (titrated, usually from 46.1 µM), without a hit: at the top dose growth rescue (activation), most hits filed as activators. 0.14% of 370,000 active. Yeast expressing alpha-synuclein, growth rescue, BacTiter-Glo, 24 h; note: potency is the fitted concentration of half-maximal effect; % of control where 0% means no effect; nearly all actives have a fitted effect of over 65% in size
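Screening used galactose-induced yeast with toxic alpha-synuclein levels, exposed to compound for 24 hr at 30 deg C. Cell growth, read with BacTiter-Glo luminescence, gave the measured signal.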
GLP1R ag – GLP-1 receptor (human) agonism; Potency, µM (highest dose often 45.6 µM), for inactives: at the highest dose activation, most hits filed as activators; 0.007% of 380,000 active; HEK293 GLP-1R CRE-luciferase, luminescence, 4-6 h; cells express a hypersensitive GLP-1R form; AID 624172; note: potency is the fitted concentration of half-maximal effect; % of control where 0% means no effect
Abeta yeast res – compounds reversing amyloid beta toxicity in yeast. yeast expressing A-beta42, growth rescue, OD600, 48 h; response scale: 0% DMSO, 100% iron-clioquinol control. Potency, µM (doses to about 46.1 µM), for the others: top-dose growth rescue, hits mostly activators. 0.063% of 410,000 active; note: potency is the fitted concentration of half-maximal effect; nearly all actives have a fitted effect of over 55% in size
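Growth rescue measured by 600 nm absorbance after 48 h yeast culture at 30 C with compound. Values normalized between DMSO and an equimolar ferric chloride plus clioquinol control.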
Akt phos inh – inhibitors of Akt phosphorylation. 0.32% of 360,000 active. AID 651550. Neuro2A IGF-stimulated pAkt S473 HTRF, 20 min; active compounds read low. activity change, % for hits at 50 µM; in the data active = activity change below about -80%; inconclusive = mostly about -51% to -80%; note: % is set by controls: 0 for no effect and ±100 for the full control effect
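Neuro2A cells (4,500/well, DMEM with 0.5% FBS) were treated with compound at a single 50 µM final concentration, stimulated with 6 nM IGF for 20 min at 37 °C, and lysed. Phospho-Akt Ser473 was read by HTRF as 665/615 ratio ×10^4.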
TDP-43 yeast inh – rescues yeast growth from TDP-43 toxicity. TDP-43 expressing yeast growth rescue, BacTiter-Glo, 24 h. Potency, µM (highest dose often 46.1 µM), for the others: at the top dose growth rescue (activation), hits mostly activators. 1.8% of 410,000 active; note: potency is the fitted concentration of half-maximal effect; % of control where 0% means no effect; nearly all actives have a fitted effect of over 50% in size
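Growth rescue of TDP-43-toxic yeast measured as ATP luminescence (BacTiter-Glo). Cells grown to mid-log in raffinose, induced in galactose at OD600=0.02, exposed to compound 24 hr at 30 deg C.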
D3 antag – blocks the human D3 dopamine receptor; P35462; D3R cells, DiscoveRx beta-arrestin luminescence, antagonist mode; active compounds read low; 2.5% of 360,000 active; max response, negative = inhibition, %; in the data active = max response below about -50%; inconclusive = no clear call, values can overlap the other calls; note: % is set by controls: 0 for no effect and ±100 for the full control effect; mostly tested at two doses, the higher about 12 µM
Target sequence (P35462 whole entry, looked up): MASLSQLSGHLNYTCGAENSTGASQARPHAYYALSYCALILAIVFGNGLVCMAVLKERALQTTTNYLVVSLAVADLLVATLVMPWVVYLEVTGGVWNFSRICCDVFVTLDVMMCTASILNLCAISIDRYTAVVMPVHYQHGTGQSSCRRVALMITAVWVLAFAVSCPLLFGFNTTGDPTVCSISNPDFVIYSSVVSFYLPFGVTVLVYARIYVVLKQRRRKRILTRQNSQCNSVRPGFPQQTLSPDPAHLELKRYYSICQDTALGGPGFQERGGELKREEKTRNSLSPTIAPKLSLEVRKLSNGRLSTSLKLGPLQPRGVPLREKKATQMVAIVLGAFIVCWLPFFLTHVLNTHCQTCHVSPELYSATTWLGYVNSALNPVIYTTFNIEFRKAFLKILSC
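Cells expressing the human receptor were seeded at 1500 cells/well, incubated overnight at 37 degrees C in 5% CO2, then exposed to library compounds with dopamine controls for 90 minutes at 37 degrees C before luminescent detection.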
* marks the source's active call; other numbers are inactive results; i = inactive; u = inconclusive; x = not tested or not shown; [ ] = another dose, or the depositor's remark. Unless noted, calls come from the whole dose curve; as a rule, active = well fitted curve in the direction sought with a large enough effect; inconclusive = small, poorly fitted or top-dose-only effect, or another doubt; inactive = no such curve, though single readings can be large; an effect the other way counts as inactive or inconclusive. These rows are one share of the data, so the mix of outcomes need not match the whole.

Molecule,FUS yeast rescue,GLP1R inv ag,aSyn yeast inh,GLP1R ag,Abeta yeast res,Akt phos inh,TDP-43 yeast inh,D3 antag
CCCC(=O)Nc1ccc2c(c1)nc(CN1CCN(C(=O)OCC)CC1)n2CC,-24.8%,u,3.9%,2.1%,1.4%,i,0.3%,2.0
O=C(CSc1nnc2c(Cl)cc(C(F)(F)F)cn12)Nc1ccc2c(c1)OCO2,38.9%,0.0%,17.0%,1.4%,2.9%,i,-6.3%,16.5
CCN(CC)CC(=O)N1c2ccccc2Oc2c(c(=O)n(C)c(=O)n2C)C1c1cccc([N+](=O)[O-])c1 (configuration not stated),7.5%,1.0%,3.0%,10.5%,6.7%,i,-6.2%,1.0
C/C(=N\NC(=O)c1ccc(NS(=O)(=O)c2cccs2)cc1)c1cccs1,20.7%,22.1%,0.0%,1.1%,4.2%,i,11.9%[9.22 µM],-9.8
C[C@H](NS(=O)(=O)c1ccc(Cl)cc1)C(=O)OCC(=O)c1ccc[nH]1,25.4%,0.4%,3.3%,-6.0%,-9.1%,i,-5.7%,-9.1
Cc1ccc(CN(C)C(=O)COc2ccc(S(=O)(=O)N3CCCC3)cc2[N+](=O)[O-])c(C)c1,u,u,12.3%,-2.5%,7.3%,i,8.8%,2.9
CCOc1ccccc1CNCCCSc1nnnn1C,-22.4%,u,x,x,-7.9%,x,1.3%[9.22 µM],x
Cc1cc(N/N=C\c2ccc(Br)cc2)nc(-n2nc(C)cc2C)n1,22.4%,u,0.9%,3.7%,-2.9%,i,18.5%,-54.3*
N#Cc1ccccc1NC(=O)C1CC(=O)N(c2ccc3c4c(cccc24)CC3)C1 (configuration not stated),14.3%,11.5%,1.5%,9.1%,11.4%,i,-1.2%,1.0
Cc1nnc(NC(=O)Cn2cnc3c2c(=O)n(C)c(=O)n3C)s1,20.5%,-0.7%,3.5%,6.6%,0.5%,i,4.3%,7.1
CCc1nn2c(-c3ccccc3OC)ccnc2c1-c1ccccc1,u,10µM*,x,-0.4%,-26.4%,x,24.2%,x
COCCc1nc2ccc(C(=O)NCc3cccc(-n4cccn4)c3)cc2o1,2.7%,1.2%,6.2%,-6.7%,-1.3%,i,11.9%,14.0
CC(C)(C)NC(=O)CN(C(=O)CCN1CCCc2ccccc21)C(C)(C)C,u,-13.1%,5.1%,-11.0%,3.5%,i,-23.1%,17.5
COc1ccccc1NC(=O)C(=O)N(c1cccnc1)C(C(=O)NC(C)(C)C)c1ccccc1F (configuration not stated),-7.2%,-21.5%,10.6%,-5.5%,-40.6%[inhibitor],i,15.1%,4.6
CN1CCN(c2oc(/C=C/c3ccccc3)nc2C#N)CC1,-3.8%,11.2%,3.5%,0.4%,-13.5%,i,-6.2%,9.8
N#CC(c1ccccn1)(c1ncc(C(F)(F)F)cc1Cl)N1CCOCC1 (configuration not stated),14.2%,0.0%,-15.9%,-9.5%,-14.1%,i,-7.3%,-20.1
Cc1ccccc1CNCCCSc1nnnn1C,-18.1%,-18.6%,x,x,-14.4%,x,0.0%[9.22 µM],x
CN(CCO)c1cc(NCCCN2CCC(Cc3ccccc3)CC2)c2nonc2c1[N+](=O)[O-],20.1%,1.2%[0.307 µM],-3.4%,-13.8%,16.8%,i,-4.4%,-75.0*
COc1cccc(C2=NOC(C(=O)Nc3ccc4c(c3)OCO4)C2)c1 (configuration not stated),x,0.0%,9.7%,4.1%,-8.4%,i,5.4%,6.7
Cc1ccc(C(=O)CSc2nc(O)cc(=O)[nH]2)cc1C,-3.6%,15.5%,7.1%,-0.8%,u,i,12.6%,-3.4
CCOC(=O)C1CCN(CC(=O)Nc2c(C(=O)OC)[nH]c3ccc(Cl)cc23)CC1,14.0%,u,-2.6%,-0.3%,6.9%,i,10.6%,-3.1
C/C(=N\NC(=O)c1ccc(NS(=O)(=O)c2cccs2)cc1)c1ccncc1,16.5%,-10.5%,-0.4%,-1.6%,0.8%,i,2.8%,-13.8
COCCN1C(=O)c2ccc(C(=O)NCc3ccco3)cc2C1=O,25.6%,12.4%,-0.1%,-3.3%,13.0%,i,6.3%,3.2
CC(Sc1nc2ccccc2c(=O)n1CC1CCCO1)C(=O)Nc1ccc(S(N)(=O)=O)cc1 (configuration not stated),6.5%,10.5%,0.6%,2.0%,-8.9%,i,-11.7%,-12.3
COc1cccc2cc(C(=O)CS(=O)(=O)c3ccc(C(C)(C)C)cc3)c(=O)oc12,10.4%,-14.5%,-0.9%,11.7%,8.9%,i,15.0%,0.8
COC(=O)C1=NN(c2ccc(OC)cc2)C2C(=O)N(c3ccccc3OC)C(=O)C12 (configuration not stated),27.6%,9.6%,2.9%,-0.6%,8.1%,i,13.1%,-13.6
O=C(Nc1nnc(CCN2CCCCC2)s1)c1ccc(Br)cc1,11.6%,10.3%,2.3%,3.6%,-8.4%,i,-3.3%[9.22 µM],-4.2
O=C(NC1CCN(Cc2ccc3ccccc3c2)CC1)c1ccccc1,8.5%,3.2%,2.8%,-0.1%,7.4%,i,-10.5%,-73.8*
O=C(O)c1cccc(S(=O)(=O)N2CCSCC2)c1,17.4%,0.5%,-9.4%,-12.0%,0.3%,i,-16.5%,-14.0
CC(=O)c1cccc(NC(=O)c2sc(-n3nc(C)c(CCC(C)C)c3C)nc2C)c1,-1.7%,2.6%,x,x,-16.4%,x,8.3%,x
O=CN1CC(=O)N(c2ccccc2)c2c([nH]c3ccccc23)C1,10.3%,16.7%,-0.7%,9.7%,3.1%,i,10.6%,5.9
CC(=C\C(=O)O)/C(=C\c1cccc2ccccc12)C(=O)O,5.9%,8.3%,9.7%,2.1%,-2.2%,i,-10.0%,8.8
Cc1ccc(C(=O)C=CNNC(=O)c2ccccc2)cc1,32.8%,-35.8%,1.4%,-1.7%,0.5%,i,-4.5%,-14.7
Cc1nn(-c2ccccc2)c2[nH]c(=O)c(CNCC3CCCO3)cc12 (configuration not stated),24.8%,12.2%,5.9%,1.0%,-13.6%,i,-18.4%,-82.5*
COC(=O)c1cc2occc2n1CC(=O)Nc1cc(OC)cc(OC)c1,23.7%,-5.7%,2.3%,1.0%,2.3%,i,-18.3%,5.7
CCOC(=O)[C@H](O)[C@@H](O)c1cccc([C@H](O)[C@@H](O)C(=O)OCC)c1,-13.0%,0.6%,-2.8%,-3.0%,-1.2%,i,-14.8%,-25.9
COC(=O)c1ccc(NC(=O)C(=O)N2CCN(C(=S)Nc3cccc(C)c3C)CC2)cc1,13.5%,-11.9%,-4.7%,3.1%,-3.6%,i,0.1%,-23.5
Cc1ccc(C)c(N(CC(=O)NCc2ccco2)C(=O)CCC(=O)Nc2ccccn2)c1,16.0%,-29.5%,6.6%,-1.2%,-9.4%,i,17.7%,38.9
Cc1cc2c3c(c1)C1(SCC(=O)N1c1ccc(F)cc1)C(=O)N3C(C)(C)CC2C (configuration not stated),38.7%,6.3%,0.0%,5.2%,-24.9%,i,-31.4%[inhibitor],32.6
O=C(Cc1cc(=O)[nH][nH]1)N/N=C/C=C/c1ccccc1,38.7%,-27.5%,-3.8%,-14.2%,10.3%,i,-8.4%,48.6
COc1ccccc1NC(=O)C(C)Sc1nc2ccccc2c(=O)n1CC1CCCO1 (configuration not stated),31.4%,-5.3%,-0.9%,11.4%,3.6%,i,6.0%,0.0
CC1CCCN(CCC(=O)Nc2ccc(F)c(F)c2)C1 (configuration not stated),-3.5%,u,0.4%,-0.8%,17.1%,i,12.6%,u
Cn1c(-c2ccccc2)c(C#Cc2ccc(N)cc2)c2ccccc21,18.2%,-25.3%,-5.6%,2.5%,-8.9%,i,2.0%,0.8
C/C(=N\Nc1ccc(Cl)cc1)c1c(O)cc(C)oc1=O,4.6%,u,15.1%,8.1%,-36.8%[inhibitor],i,16.5%,1.5
O=S(=O)(Cc1cccc(C(F)(F)F)c1)c1ncn[nH]1,19.7%,-6.3%,-0.9%,3.8%,-8.7%,i,-20.1%[0.397 µM],0.7
CC(=O)C1=C(O)C(=O)N(CCC(=O)O)C1c1ccc(Cl)cc1Cl (configuration not stated),-7.1%,-22.0%,0.6%,-1.5%,0.9%,i,3.3%,7.9
O=C(CSCc1ccccc1Br)N/N=C/c1ccc(OCC(=O)N2CCCCC2)cc1,x,-12.5%,-3.1%,-6.1%,10.3%,i,6.0%,-9.5
O=C(Nc1ccccc1)C1CC(=O)N(c2ccc3c4c(cccc24)CC3)C1 (configuration not stated),7.8%,u,-2.1%,3.5%,-1.4%,i,-14.7%,-19.2
CCCOc1ccccc1C(=O)N1CCCCC1CCN1CCCCC1 (configuration not stated),-1.8%,4.0%,-6.3%,x,-26.9%,x,-10.8%,x
O=C(Cn1cnc2sc3c(c2c1=O)CCCC3)NCC(=O)Nc1c(F)cc(F)cc1Br,-11.8%,6.7%,0.3%,-4.5%,5.1%,i,-4.4%,10.3
COc1ccc(S(=O)(=O)N2c3ccccc3NC(=O)CC2C)cc1 (configuration not stated),9.9%,17.9%,-21.7%,-4.9%,-4.9%,i,-24.4%,-8.3
CC(NS(=O)(=O)c1ccc(Cl)cc1)C(=O)OCC(=O)c1ccc[nH]1 (configuration not stated),16.3%,-0.7%,9.9%,5.5%,1.2%,i,22.8%,11.2

Complete entries from above. Order of values: FUS yeast rescue, GLP1R inv ag, aSyn yeast inh, GLP1R ag, Abeta yeast res, Akt phos inh, TDP-43 yeast inh, D3 antag
O=C(Cn1cnc2sc3c(c2c1=O)CCCC3)NCC(=O)Nc1c(F)cc(F)cc1Br is listed with -11.8%, 6.7%, 0.3%, -4.5%, 5.1%, i, -4.4%, 10.3
C/C(=N\Nc1ccc(Cl)cc1)c1c(O)cc(C)oc1=O is listed with 4.6%, u, 15.1%, 8.1%, -36.8%[inhibitor], i, 16.5%, 1.5
CCCOc1ccccc1C(=O)N1CCCCC1CCN1CCCCC1 (configuration not stated) is listed with -1.8%, 4.0%, -6.3%, x, -26.9%, x, -10.8%, x
COc1ccc(S(=O)(=O)N2c3ccccc3NC(=O)CC2C)cc1 (configuration not stated) is listed with 9.9%, 17.9%, -21.7%, -4.9%, -4.9%, i, -24.4%, -8.3
